# Source: PubChem BioAssay
# miR-21 reporter: qHTS Assay for Modulators of miRNAs and/orActivators of miR-21 | HeLa miR-21 FLuc reporter, luciferase, 48 h | Potency, µM (doses to about 38.3 µM), without a hit: at the top dose reporter change, positive = more light | 340,000 tested, under 10 active; active = well fitted rising curve with a large enough effect; inconclusive = small, poorly fitted or top-dose-only effect; inactive = no such curve, though single readings can be large or run the other way;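 also: % of control where 0% means no effect; miR-21 action dims this reporter so a rising signal means less miR-21 action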
#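 Compounds were titrated across several concentrations (up to approximately 40 uM) and incubated 48 hours with HeLa miR-21-FLuc reporter cells (miR-21 target sequence downstream of FLuc, endogenous miR-21). Readout was firefly luciferase luminescence after lytic detection reagent.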
# Rango dissoc inh: qHTS Assay for Inhibitors of RanGTP induced Rango (Ran-regulated importin-beta cargo) - Importin beta complex dissociation. Potency, µM (highest dose often 46.1 µM), without a hit: at the top dose activity change, negative = inhibition. Biochemical FRET Rango-importin beta, RanGTP-induced dissociation. 340,000 compounds, 0.071% hits; active means falling FRET ratio curve, often poorly fitted, with flat reads before Ran was added; inconclusive means other falling curves, or compound fluorescence or quenching; inactive means flat or rising ratio curve;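 also: potency is read from the fitted curve at half-maximal effect; % of control where 0% means no effect; nearly all actives have a fitted effect of over 45% in size; -100% = wells without RanGTP and RCC1; the record marks most hits as doubtful in a second field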
#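 Rango/importin beta premix (0.1/0.25 uM final), PBS + 1 mM DTT + 0.02% Tween-20 + 0.1% BSA; cpd 5 min RT; FRET pre-read; + RanGTP-RCC1 (0.6 uM Ran, 2 mM GTP, 0.2 uM RCC1); 45 min RT; FRET post-read, ex 430, em 486/530 nm.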
# GLA inh pH 4.5: qHTS Assay for Inhibitors of Human alpha-Galactosidase at pH 4.5; activity change, negative = inhibition, % at 105 µM; purified enzyme, 4-MU-alpha-Gal fluorescence, pH 4.5; 230,000 tested, under 10 active; inconclusive = small, poorly fitted or top-dose-only inhibition, or a rising curve; inactive = flat fitted curve, though single readings scatter; no compound was filed as active;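 also: 0% = full activity with enzyme and -100% = basal without enzyme; dose as in the result columns while the protocol names 77 µM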
# Rango-impB inh: qHTS Assay for Inhibitors of Rango (Ran-regulated importin-beta cargo) - Importin beta complex formation; Potency, µM (titrated, usually from 92.2 µM), without a hit: top-dose inhibition of complex formation; 340,000 compounds, 0.031% hits; AID 540263, 2011; Rango CFP/YFP FRET sensor + importin beta, 45 min; active = rising FRET ratio curve, often small or poorly fitted; inconclusive = mostly compound fluorescence or quenching in the first reads; inactive = flat curves in all reads;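 also: potency is read from the fitted curve at half-maximal effect; 0% = DMSO wells and 100% = buffer wells lacking importin beta; nearly all actives have a fitted effect of over 15% in size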
# Target sequence (Q14974 whole entry, looked up): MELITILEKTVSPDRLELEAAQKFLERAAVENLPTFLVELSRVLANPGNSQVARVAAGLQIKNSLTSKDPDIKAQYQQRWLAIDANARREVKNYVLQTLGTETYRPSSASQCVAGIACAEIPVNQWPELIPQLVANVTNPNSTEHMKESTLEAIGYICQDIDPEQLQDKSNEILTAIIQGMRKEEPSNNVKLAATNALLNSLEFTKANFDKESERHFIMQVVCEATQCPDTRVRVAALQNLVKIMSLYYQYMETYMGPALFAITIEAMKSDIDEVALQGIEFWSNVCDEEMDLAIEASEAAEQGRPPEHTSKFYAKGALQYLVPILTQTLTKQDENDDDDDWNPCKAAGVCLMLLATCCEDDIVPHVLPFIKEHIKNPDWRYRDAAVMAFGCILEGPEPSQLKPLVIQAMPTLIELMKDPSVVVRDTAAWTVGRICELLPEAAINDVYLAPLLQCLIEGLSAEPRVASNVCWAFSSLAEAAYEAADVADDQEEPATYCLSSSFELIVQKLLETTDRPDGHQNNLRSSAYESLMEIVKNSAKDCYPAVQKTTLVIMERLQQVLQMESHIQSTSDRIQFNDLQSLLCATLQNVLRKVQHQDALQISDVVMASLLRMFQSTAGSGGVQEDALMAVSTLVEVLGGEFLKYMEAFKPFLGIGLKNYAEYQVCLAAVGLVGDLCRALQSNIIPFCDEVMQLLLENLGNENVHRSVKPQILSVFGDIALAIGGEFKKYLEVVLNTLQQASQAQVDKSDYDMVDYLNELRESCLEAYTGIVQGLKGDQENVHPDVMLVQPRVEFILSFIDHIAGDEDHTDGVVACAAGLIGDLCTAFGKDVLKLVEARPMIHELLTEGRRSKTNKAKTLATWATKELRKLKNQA
#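 Inhibition scored from the CFP 486 nm/YFP 530 nm FRET ratio 45 min after adding 0.125 microM importin beta to 50 nM Rango biosensor preincubated 5 min with compound (room temperature, PBS with DTT, Tween-20, BSA). No-importin wells as positive control.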
# Starred values were filed as active, the others as inactive; ? = inconclusive; / = no result given; & = joins results of further samples. An excerpt (hit frequency here may not be typical).
# Key to letters: A = miR-21 reporter; B = Rango dissoc inh; C = GLA inh pH 4.5; D = Rango-impB inh
Cn1nccc1CNC(=O)c1c(Cl)cnn1C
  A: -4% | B: 1% | C: 0 | D: -1.2%
CCN(Cc1ccccc1)c1ccc(/C=N/N2CCOCC2)cc1
  A: -21% | B: -7% | C: 6 | D: -4.4%
Cc1cc(C)n(/N=C/c2cccc([N+](=O)[O-])c2)c(=O)c1
  A: -1% | B: -10% | C: 5 | D: -2.3%
CCn1nc(NC(=O)c2ccncc2)c2cc3ccc(C)cc3nc21
  A: -13% | B: ? | C: -1 | D: ?
COc1ccc(OC)c(-c2c3c([nH]c(=S)c2C#N)CCCC3)c1
  A: 2% | B: -4% | C: 0 | D: -1.0%
COc1cc(NC(=O)C2CCCC2)c(OC)cc1Cl
  A: -12% | B: 7% | C: -1 | D: -5.9%
CC1CC(C)CN(CCCNC(=O)c2c(O)nc3ccccn3c2=O)C1 (stereo not given)
  A: / | B: -13% | C: / | D: 0.0%
Cc1cc(NC(=O)CSc2nc3ccccc3c(=O)n2CCCC(=O)NCc2ccco2)n[nH]1
  A: 8% | B: 6% | C: 6 | D: 3.6%
CCN1CCN(C(=O)C2=CC(c3ccc(C)cc3)=NS(=O)(=O)N2C)CC1
  A: -2% | B: 5% | C: / | D: 13%
COc1ccccc1CNc1ccc2nnc(CCNC(=O)c3ccccc3)n2n1
  A: -8% | B: -3% | C: 8 | D: 0.4%
Oc1ccc(-c2cn3cc(C(F)(F)F)ccc3n2)cc1
  A: 25% | B: 0% | C: -2 | D: -0.4%
O=C(O)c1cccc(-c2ccc(/C=N/NC(=O)c3cccnc3)o2)c1
  A: -25% | B: -18% | C: 6 | D: 0.6%
NC(=O)c1ccsc1NC(=O)CN1CCN(S(=O)(=O)c2ccccc2C(F)(F)F)CC1
  A: / | B: 1% | C: / | D: -1.3%
CCc1ccc(NC(=O)C(C)OC(=O)c2ccc(-n3cnnn3)cc2)cc1 (stereo not given)
  A: / | B: -4% | C: / | D: 0.1%
CSc1cccc(NC(=O)CCS(=O)(=O)c2cccc3nonc23)c1
  A: -7% | B: 1% | C: / | D: 2.8%
Cc1cc(NS(=O)(=O)c2ccc(NS(=O)(=O)c3cc(C)c(Cl)cc3Cl)cc2)no1
  A: -4% | B: -1% | C: / | D: 1.6%
CN(NC(=O)COc1ccccc1)c1ccccc1
  A: 0% | B: -8% | C: -4 | D: 1.2%
Cc1onc(-c2ccccc2)c1C(=O)NC(C)c1ccccc1 (stereo not given)
  A: / | B: 7% | C: / | D: 0.3%
O=C(COC(=O)Cn1cnc2ccccc2c1=O)Nc1ccccc1OC(F)F
  A: / | B: 8% | C: / | D: 0.6%
CCN(C(=O)COC(=O)c1cc(-c2ccccc2)nc2c1c(C)nn2-c1ccccc1)C1CCS(=O)(=O)C1 (stereo not given)
  A: -4% | B: ? | C: 0 | D: ?
COc1ccc(C(=O)Nc2ccc(N3CCN(c4ccc(OC)cc4)CC3)c(C#N)c2)cc1
  A: -2% | B: -10% | C: -1 | D: 4.0%
CSCCC(NC(=O)c1ccco1)C(=O)NCC(c1ccco1)N1CCCCC1 (stereo not given)
  A: / | B: -8% | C: / | D: -3.1%
CCC(Cc1ccccc1)n1c(=S)[nH]c2ccccc2c1=O (stereo not given)
  A: 1% | B: -7% | C: -28 | D: -2.3%
Cc1ccc(O)c(-c2cc(C(=O)NCc3ccc4c(c3)OCO4)[nH]n2)c1
  A: -7% | B: 10% | C: -11 | D: 3.5%
Cc1cccc2cc(/C=N/NC(=O)c3ccccc3O)c(Cl)nc12
  A: 0% | B: -5% | C: -12 | D: -1.5%

# Additional entries:
# Below each SMILES – miR-21 reporter | Rango dissoc inh | GLA inh pH 4.5 | Rango-impB inh
> COc1ccc(C(=O)CSc2nnc(CNC(=O)c3ccccc3)o2)cc1
  3% | 20% | / | 1.5%
> COc1ccc(CNC(=O)C(C)n2nc(C)c3c(C)n(-c4ccccc4)nc3c2=O)c(OC)c1 (stereo not given)
  ? | 13% | / | 0.3%
> O=C(COc1ccccc1Cl)NCCNC(=O)c1ccncc1
  0% | 17% | / | 0.0%
> CN1CCN(C(=O)c2cccn(Cc3ccc(C(F)(F)F)cc3)c2=O)CC1
  2% | 2% | / | 0.2%
> O=C(NCc1ccccn1)c1cccs1
  -13% | -1% | -7 | -1.7%
> Cn1ncc(Br)c1NC(=O)Nc1ccccc1
  -14% | 14% | / | -1.0%
> COc1ccc(NC(=O)CSc2nc3cccnc3n2C)cc1
  -8% | -17% | -5 | -0.7%
> C=CC[n+]1c(/C=C/c2ccc(OC(C)=O)c(OC)c2)ccc2ccccc21
  28% | 15% | / | ?
> COc1ccc(CCNS(=O)(=O)c2cccc(C(=O)O)c2)cc1OC
  -4% | -14% | -3 | 0.2%
> CS(=O)(=O)N1CCN(c2ccccc2NC(=O)c2ccc([N+](=O)[O-])o2)CC1
  7% | -6% | 2 | 2.0%
> CON(C)C(=O)C[C@@H]1C[C@H](OC(=O)c2ccc([N+](=O)[O-])cc2)CN1C(=O)OC(C)(C)C
  / | 1% | / | -0.2%
> COc1ccc(NC(=O)C2CCCN(C)C2)cc1OCC(C)C (stereo not given)
  -2% | 0% | 4 | 1.3%
> COc1ccccc1Nc1nc(=O)[nH]nc1C
  -2% | -8% | 6 | -1.4%
> O=C(CN1C(=O)c2ccc([N+](=O)[O-])cc2C1=O)NCC1CCCO1 (stereo not given)
  / | -2% | / | 0.7%
> Clc1nc(-c2n[nH]nc2Cl)n[nH]1
  -2% | 11% | -8 | -0.9%

# 2 consecutive entries out of the list so far, for reference:
# Below each SMILES – miR-21 reporter | Rango dissoc inh | GLA inh pH 4.5 | Rango-impB inh
> COc1ccc(NC(=O)C2CCCN(C)C2)cc1OCC(C)C (stereo not given)
  -2% | 0% | 4 | 1.3%
> COc1ccccc1Nc1nc(=O)[nH]nc1C
  -2% | -8% | 6 | -1.4%

# Further structures
# Below each SMILES – miR-21 reporter | Rango dissoc inh | GLA inh pH 4.5 | Rango-impB inh
> Cc1ccc(S(=O)(=O)Nc2ccccc2CNc2ccc(Br)cn2)cc1
  0% | -15% | -18 | 2.9%
> Cc1ccc(S(=O)(=O)N2C(=O)C(C)SC2=Nc2ccccc2)cc1 (stereo not given)
  -4% | 18% | 0 | -2.2%
> COc1ccc(CN2CC(C(=O)NCc3cccc(OC)c3)CC2=O)cc1 (stereo not given)
  -3% | 3% | -6 | -3.3%
> Cc1ccc2nsnc2c1NC(=O)c1ccc(-c2cc(Cl)ccc2Cl)o1
  -1% | 0% | 0 | -2.8%
> CCC1Oc2ccccc2N(CC(=O)NCC2CCCO2)C1=O (stereo not given)
  -1% | 13% | / | 5.6%
> Cc1cc(C)cc(N(CC(=O)Nc2ccc(C)cc2Cl)S(=O)(=O)c2c(C)[nH]c(=O)[nH]c2=O)c1
  1%&0% | -4% | / | -3.5%
> CCOc1ccccc1OCC(=O)NCc1ccco1
  -1% | -12% | -3 | ?
> C=CCNc1nnc(C)c2ccccc12
  -11% | 20% | -1 | 1.5%
> Cn1c(SCC(=O)O)nc2ccccc2c1=O
  2% | 2% | 4 | 2.6%
> COc1cc(OC)cc(C(=O)NCCN2C(=O)S/C(=C\c3cccs3)C2=O)c1
  17% | -11% | -2 | 0.0%
> CCCCC1(C)NC(=O)c2c(C)sc(C(=O)OCC)c2N1 (stereo not given)
  13% | 2% | 0 | 2.7%
> COc1ccc2c(c1)C(=O)Cc1ccccc1O2
  / | -12% | / | 1.7%

# Some of the entries above, set out differently.
miR-21 reporter | Rango dissoc inh | GLA inh pH 4.5 | Rango-impB inh | mol
7% | -6% | 2 | 2.0% | CS(=O)(=O)N1CCN(c2ccccc2NC(=O)c2ccc([N+](=O)[O-])o2)CC1
/ | 1% | / | -0.2% | CON(C)C(=O)C[C@@H]1C[C@H](OC(=O)c2ccc([N+](=O)[O-])cc2)CN1C(=O)OC(C)(C)C
-2% | 0% | 4 | 1.3% | COc1ccc(NC(=O)C2CCCN(C)C2)cc1OCC(C)C (stereo not given)
-2% | -8% | 6 | -1.4% | COc1ccccc1Nc1nc(=O)[nH]nc1C
/ | -2% | / | 0.7% | O=C(CN1C(=O)c2ccc([N+](=O)[O-])cc2C1=O)NCC1CCCO1 (stereo not given)
-2% | 11% | -8 | -0.9% | Clc1nc(-c2n[nH]nc2Cl)n[nH]1
0% | -15% | -18 | 2.9% | Cc1ccc(S(=O)(=O)Nc2ccccc2CNc2ccc(Br)cn2)cc1
-4% | 18% | 0 | -2.2% | Cc1ccc(S(=O)(=O)N2C(=O)C(C)SC2=Nc2ccccc2)cc1 (stereo not given)
-3% | 3% | -6 | -3.3% | COc1ccc(CN2CC(C(=O)NCc3cccc(OC)c3)CC2=O)cc1 (stereo not given)
-1% | 0% | 0 | -2.8% | Cc1ccc2nsnc2c1NC(=O)c1ccc(-c2cc(Cl)ccc2Cl)o1
-1% | 13% | / | 5.6% | CCC1Oc2ccccc2N(CC(=O)NCC2CCCO2)C1=O (stereo not given)
1%&0% | -4% | / | -3.5% | Cc1cc(C)cc(N(CC(=O)Nc2ccc(C)cc2Cl)S(=O)(=O)c2c(C)[nH]c(=O)[nH]c2=O)c1
-1% | -12% | -3 | ? | CCOc1ccccc1OCC(=O)NCc1ccco1
-11% | 20% | -1 | 1.5% | C=CCNc1nnc(C)c2ccccc12
2% | 2% | 4 | 2.6% | Cn1c(SCC(=O)O)nc2ccccc2c1=O
17% | -11% | -2 | 0.0% | COc1cc(OC)cc(C(=O)NCCN2C(=O)S/C(=C\c3cccs3)C2=O)c1
13% | 2% | 0 | 2.7% | CCCCC1(C)NC(=O)c2c(C)sc(C(=O)OCC)c2N1 (stereo not given)
/ | -12% | / | 1.7% | COc1ccc2c(c1)C(=O)Cc1ccccc1O2
